# CSC inhib: blocks cancer stem cells. cancer stem cell-like cells viability, luminescence. inhibition, % at 7.5 µM. hit rate 1.1% among 300,000. AID 2717;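 active = mean at 75% or more and at least half the replicates too; inconclusive = mean and replicates disagree; tested in HMLE shEcad cells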;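 note: 0% = median of negative and 100% = median of positive control wells; the first replicate is given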
# Env fusion inh: HIV envelope-mediated fusion inhibition; HeLa-JRFL Env/CEM21 cell fusion, luciferase; inhibition, % at 12.3 µM; hit rate 1.1% among 360,000; AID 651610;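 active = mean replicate inhibition score of at least 50 and every replicate individually at or above 50; inconclusive = only one of the two criteria met; inactive = mean below 50 and not all replicates reaching 50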;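 note: 0% = plate neutral controls and 100% = maraviroc near 300 nM; one replicate is shown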
# MT1-MMP act inh: blocks activation of human MT1-MMP; GFP/RFP ratio change, % at 20 µM; hit rate 0.061% among 360,000; P50281; AID 651647; HT1080 RFP-PRO-GFP cells, GFP/RFP ratio fluorescence, overnight; percent of plate control window, DMSO zero;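 active = GFP/RFP ratio change of at least 30% with cell ATP level not reduced by more than half and red fluorescence within 50% of control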; note: strong numbers were not always called active
#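 Material: RFP-PRO-GFP reporter HT1080 cells. Dosing: single-point 20 µM compound, 1% DMSO. Controls: DMSO and RFP-L50D-GFP cell wells. Timing: cells overnight before dosing, compound overnight, 37 °C, 5% CO2. Measure: GFP/RFP fluorescence ratio.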
# eIF4H inh: inhibitors of RNA binding by human eIF4H; hit rate 0.94% among 290,000; Q15056; AID 2012; eIF4H fluorescence polarization binding assay; inhibition, % at 35 µM;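 active = 50% or more with normal probe brightness, or confirmed in later tests; inconclusive = above 50% with abnormal brightness, or retests that disagree; inactive = below 50% or failed in later tests; about a fifth of its hits are not listed in these tables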;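 note: calls also rest on retests at 20 µM and on dose response follow-up; 0% = protein and probe with vehicle and 100% = probe without protein; strong numbers were not always called active; many hits fall short of the cut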
# UUG fidelity: yeast start codon fidelity modulation. S. cerevisiae UUG-firefly luciferase reporter, luminescence/redox ratio. activity score, % at 18.7 µM. hit rate 0.13% among 350,000. AID 602363;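 active = replicate mean at a twofold rise or more, about +100% in these data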;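 note: firefly luciferase made from a UUG start codon reports start codon fidelity; reporter light over untreated wells divided by growth signal over untreated wells; some hits fall short of that in this replicate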
# Rce1 inhib: yeast Ras-converting enzyme inhibition; Q03530; yeast membranes, quenched prenylated peptide cleavage fluorescence; calls only; hit rate 0.27% among 290,000;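 active = fall in fluorescence gain of 50% or more versus controls, with final raw signal at or below 3038400; inconclusive = same 50% fall but final raw signal above 3038400; inactive = fall in fluorescence gain under 50%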;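 note: plate controls were neutral control wells for no effect and wells lacking membranes for full effect; tested at 10 µM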
# PABP polyA inh: PABP-poly(A) binding inhibition; P11940; PABP-poly(A) RNA binding, fluorescence polarization; inhibition, % at 35 µM; hit rate 1% among 290,000;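 active = 50% or more with normal probe brightness, or confirmed in later tests; inconclusive = above 50% with abnormal brightness, or retests that disagree; inactive = below 50% or failed in later tests; about a fifth of its hits are not listed in these tables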;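 note: calls also rest on retests at 20 µM and on dose response follow-up; controls were probe without protein and protein plus probe with vehicle; some compounds called inactive have numbers as strong as hits; many hits fall short of the cut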
# Target sequence (P11940 whole entry, looked up): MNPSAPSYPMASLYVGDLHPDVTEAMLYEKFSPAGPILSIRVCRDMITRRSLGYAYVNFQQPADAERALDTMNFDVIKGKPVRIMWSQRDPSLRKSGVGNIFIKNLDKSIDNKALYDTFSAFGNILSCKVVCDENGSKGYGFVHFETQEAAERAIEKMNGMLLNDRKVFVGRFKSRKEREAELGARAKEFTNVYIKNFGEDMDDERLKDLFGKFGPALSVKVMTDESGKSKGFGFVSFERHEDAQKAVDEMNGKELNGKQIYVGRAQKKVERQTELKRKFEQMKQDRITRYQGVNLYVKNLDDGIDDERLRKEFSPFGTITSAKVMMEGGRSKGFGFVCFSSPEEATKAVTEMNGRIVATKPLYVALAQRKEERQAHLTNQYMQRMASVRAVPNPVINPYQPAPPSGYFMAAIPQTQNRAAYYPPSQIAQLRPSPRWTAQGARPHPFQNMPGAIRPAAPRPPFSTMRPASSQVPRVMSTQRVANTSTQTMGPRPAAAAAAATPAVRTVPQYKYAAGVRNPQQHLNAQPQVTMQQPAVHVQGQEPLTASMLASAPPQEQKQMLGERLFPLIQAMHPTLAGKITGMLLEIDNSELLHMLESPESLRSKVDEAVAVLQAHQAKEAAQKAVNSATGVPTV
# eIF4H inh retest: second read-out of eIF4H inh, no call of its own (marks repeat the call); inhibition, %; compound at 20 µM; confirmation average;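 mean of two retest wells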
# PABP polyA inh retest: recorded beside PABP polyA inh, whose call it bears; inhibition, %; compound at 20 µM; confirmation repeats;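 mean of two retest wells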
# MT1-MMP act inh RFP: second read-out of MT1-MMP act inh, no call of its own (marks repeat the call); RFP signal change, %; measured here: RFP expression control read;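 0 = vehicle wells; hits needed this value within 50% of zero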
# * = called active by the depositor; i = inactive; ? = inconclusive; nt = no result given. The list is partial; count on the stated rates, not on these rows.
SMILES,CSC inhib,Env fusion inh,MT1-MMP act inh,MT1-MMP act inh RFP,eIF4H inh,UUG fidelity,Rce1 inhib,PABP polyA inh,others
O=c1[nH]c(Nc2ccccc2)cc2cc(Br)ccc12,18.9,-92.1,-2.1,6.5,nt,-82.8,i,nt,
COc1cc(C2NC(=O)NC(C)=C2C(=O)OC2CCCC(C)C2)ccc1O (stereo not drawn),-18.3,nt,0.5,-4.8,-2.9,-5.4,i,2.0,
Cc1cc(NCCCOC(C)C)n2c(nc3ccccc32)c1C#N,0.5,0.1,-4.4,-9.5,3.6,-9.5,i,4.6,
Cc1cc(C)n2nc(C(=O)Nc3ccc4c(c3)CCC4)nc2n1,0.0,-16.8,6.6,8.1,2.1*,-12.7,i,65.5,eIF4H inh retest=85.8*;PABP polyA inh retest=40.3
CCN(CC)CCCSc1nc2ccccc2s1,9.3,2.5,6.1,2.4,4.4,-14.7,i,2.1,
CC(C)CC(=O)Nc1ccc(-c2nnn(CC(=O)NCc3ccco3)n2)cc1,-4.5,-38.8,0.6,-0.5,-6.6,nt,i,-18.0,
COc1ccc(OCC(=O)Nc2cccc(OC)c2)cc1,-7.5,-66.4,4.4,3.4,2.4,-15.1,i,-1.0,
CCC1(c2ccccc2)NC(=S)N(c2ccc(C)cc2)N1 (stereo not drawn),nt,-18.1,1.5,4.7,-3.4,-13.3,i,-7.5,
CSc1nc(C)cc(SC(C(C)=O)C(=O)Nc2ccccc2)n1 (stereo not drawn),-9.9,-20.1,-3.2,-3.1,-7.8,-14.4,i,-7.3,
Cc1nc(NCc2cccnc2)c2c3c(sc2n1)CC(C)CC3 (stereo not drawn),-8.0,8.2,4.6,-1.9,-2.1,nt,i,7.9,
COc1c(O)ccc2c1CN1CCc3cc4c(cc3C1C2)OCO4 (stereo not drawn),-4.0,nt,-15.4,-9.5,4.3,-18.8,i,4.8,
COC(=O)C1=C(C)N=C2SC(C#N)=C(N)N2C1c1ccc(OC)cc1 (stereo not drawn),-9.2,nt,11.6,-5.2,-2.5,-27.6,i,-7.4,
O=C(OCc1ccccc1)C1=NNC2C(=O)N(c3ccc(Br)cc3)C(=O)C12 (stereo not drawn),-6.2,-6.0,-8.1,-0.5,-11.9,-25.0,i,1.5,
CN(C)S(=O)(=O)c1cccc(NC(=S)N(CCC#N)Cc2cccnc2)c1,-15.6,-8.5,1.0,2.2,-3.9,-12.4,i,4.7,
Cc1ccc([C@H]2C(C(=O)O)=C[C@@H](C(C)(C)C)N2S(=O)(=O)c2ccc(C)cc2)cc1,nt,-19.9,3.0,3.8,nt,-22.0,nt,nt,
COc1ccc(Br)cc1CN1CCSCC1,-14.1,-6.4,1.7,2.6,-2.5,-33.9,i,18.7,
CSCCC(NC(=O)COc1ccccc1)C(=O)OCc1ccc([N+](=O)[O-])cc1 (stereo not drawn),-11.3,1.2,-0.2,4.4,nt,-18.0,i,nt,
COc1ccc(CC(=O)N/N=C/c2cccs2)cc1OC,-1.4,-10.4,-6.4,-2.2,4.1,-13.2,i,-7.8,
NC(=O)C1CCN(C2=C(NS(=O)(=O)c3ccccc3)C(=O)c3ccccc3C2=O)CC1,-4.7,-4.0,5.3,-0.7,4.4,nt,i,16.1,
NC(=O)C1(N2CCCCC2)CCN(CC(=O)Nc2ccccc2-c2ccccc2)CC1,-10.3,nt,-0.4,1.6,-5.3,-4.2,i,-6.8,
CCc1cc2c(=O)n(Cc3ccco3)c(SCc3c(C)noc3C)nc2s1,58.9,45.7,-1.7,-15.9,-0.6,-6.8,i,-3.0,
CC(C)OC(=O)c1cccc(C(=O)Oc2ccccc2)n1,-7.7,14.9,2.9,1.2,3.8,-13.9,i,3.4,
Cc1ccc(-c2noc(-c3c(C)noc3C)n2)cc1,2.6,-21.9,-2.2,-0.4,-5.7,nt,i,-6.9,
Cc1ccc(C(=O)c2c3ccc([N+](=O)[O-])cc3[n+]([O-])n2CCCC(N)=O)cc1,-4.0,35.2,-4.7,-3.1,nt,-0.8,i,nt,
O=C(/C=C/c1cccnc1)c1ccc(O)cc1,38.3,3.4,-2.8,-4.2,1.0,nt,i,9.2,
SMILES,CSC inhib,Env fusion inh,MT1-MMP act inh,MT1-MMP act inh RFP,eIF4H inh,UUG fidelity,Rce1 inhib,PABP polyA inh,others
CS(=O)(=O)N(Cc1ccccc1Cl)c1ccc(C(=O)NCc2ccccn2)cc1,-15.0,13.6,-2.9,-3.3,7.6,nt,i,12.9,
COc1ccc(C(=S)N2CCCCC2)cc1Br,10.9,8.8,-3.7,-0.3,-8.0,-11.7,i,-9.7,
CC(C)(C)c1ccc(Cn2nnc3c(=O)[nH]c(C4CCCN(C(=O)c5cccs5)C4)nc32)cc1 (stereo not drawn),78.6*,31.8,2.5,-2.0,3.2,-0.3,i,6.9,
C[C@H]1CCC[C@]2(O[C@H](CCO)C[C@@H](O)[C@@H]2O)O1,-7.3,-5.6,-4.7,1.5,nt,-22.4,i,nt,
O=C1C(Cl)=C(NCC2CCCO2)C(=O)N1C1CCCCC1 (stereo not drawn),0.5,-2.0,2.0,-6.5,6.1,13.8,i,8.9,
COc1ccc(CCNC(=O)CSc2ccc3ccccc3c2)cc1OC,12.3,nt,0.1,2.7,2.9,-7.6,i,-1.3,
O=C(c1sc2ccccc2c1Cl)N1CCN(c2ccccc2F)CC1,3.7,-6.1,1.3,6.9,-8.2,-7.5,i,-13.9,
COc1ccc(N2CCN(C(=O)c3ccc(Cl)c(S(=O)(=O)N4CCOCC4)c3)CC2)cc1,nt,-2.6,-5.0,-6.5,nt,-10.6,nt,nt,
COc1cc(C)ccc1OCC(=O)OCC(=O)NCC1CCCCC1,-3.1,-14.3,1.0,-2.1,nt,-12.5,nt,nt,
COc1ccc2c(c1)C(C)CC(C)(C)N2C(=O)Nc1ccccc1 (stereo not drawn),-5.1,7.8,-2.6,2.7,0.5,-31.1,i,-6.5,
O=C(CN(Cc1ccccc1)S(=O)(=O)c1ccccc1)N/N=C/c1ccc([N+](=O)[O-])cc1,-2.2,-127.2,0.5,-6.4,-11.0,-17.0,i,-6.5,
CCOc1ccc(OCCN2C(=O)NC(Cc3c[nH]c4ccccc34)C2=O)cc1 (stereo not drawn),-2.9,4.6,2.2,-3.7,-0.8,nt,i,-5.5,
COc1ccc(NC(=O)c2cc3cc(OC)ccc3oc2=O)cc1,3.6,3.2,-2.4,-3.5,nt,-13.0,nt,nt,
CCCCN(C)CCCNC(=O)c1cc(=O)[nH]c2ccc(S(=O)(=O)N3CCCCC3C)cc12 (stereo not drawn),-5.9,59.7*,0.6,1.7,-15.1,nt,i,-9.3,
N#Cc1c(-c2ccccc2)ccn(Cc2ccc(Cl)cc2)c1=O,-7.3,nt,-2.9,-6.1,-12.0,-2.2,i,-4.3,
CN(C(=O)c1ccc(F)cc1)c1ccc(OCC(=O)Nc2ccccc2C(=O)O)cc1,1.1,4.1,0.7,-0.8,nt,3.8,nt,nt,
C=CCn1c(SCC(=O)N(CC)c2c(N)n(Cc3ccccc3)c(=O)[nH]c2=O)nnc1-c1ccccc1OC,nt,-1.1,-1.4,-1.2,nt,-14.0,nt,nt,
C=CCn1c(SCC(=O)c2c(N)n(CCC)c(=O)n(C)c2=O)nnc1-c1ccncc1,-3.4,-5.9,4.4,-2.7,3.4,nt,i,8.3,
COc1cccc(-c2nc(CS(=O)(=O)CC(=O)Nc3cc(OC)ccc3OC)c(C)o2)c1,-17.1,4.2,0.7,0.2,-18.7,-12.9,i,-0.4,
Cc1ccc2c(c1)NC(C(C)(C)C)CO2 (stereo not drawn),-9.9,nt,0.5,-1.6,-9.4,-8.9,i,-1.1,
CCN(CC(=O)NCc1cccs1)c1ccc(S(=O)(=O)N2CCCC2)cn1,2.5,3.3,-2.1,-0.8,-4.9,-6.4,i,?,
CCc1nnc(NS(=O)(=O)c2ccc(NC(=O)c3ccc(S(=O)(=O)N(CC)CC)cc3)cc2)s1,-10.4,1.9,-4.5,-0.3,-1.8,6.7,i,0.7,
CCn1nc(C)c(NC(=O)CCCSc2nc(-c3ccco3)cc(C(F)(F)F)n2)c1C,-2.0,nt,3.1,-18.0,-4.4,1.3,i,-4.9,
CC1CN(S(=O)(=O)c2cc(C(=O)N3CCCCC3C)ccc2Cl)CC(C)O1 (stereo not drawn),7.3,nt,-2.7,-13.3,nt,-4.6,nt,nt,
CC1Cc2ccccc2N1C(=O)C1CCN(S(=O)(=O)c2cccs2)CC1 (stereo not drawn),7.9,nt,0.3,0.7,-3.1,-14.5,i,-4.1,

# 7 structures already listed, ordered by molecular weight, highest first:
SMILES,CSC inhib,Env fusion inh,MT1-MMP act inh,MT1-MMP act inh RFP,eIF4H inh,UUG fidelity,Rce1 inhib,PABP polyA inh,others
C=CCn1c(SCC(=O)c2c(N)n(CCC)c(=O)n(C)c2=O)nnc1-c1ccncc1,-3.4,-5.9,4.4,-2.7,3.4,nt,i,8.3,
CS(=O)(=O)N(Cc1ccccc1Cl)c1ccc(C(=O)NCc2ccccn2)cc1,-15.0,13.6,-2.9,-3.3,7.6,nt,i,12.9,
CCOc1ccc(OCCN2C(=O)NC(Cc3c[nH]c4ccccc34)C2=O)cc1 (stereo not drawn),-2.9,4.6,2.2,-3.7,-0.8,nt,i,-5.5,
O=C(c1sc2ccccc2c1Cl)N1CCN(c2ccccc2F)CC1,3.7,-6.1,1.3,6.9,-8.2,-7.5,i,-13.9,
COc1cc(C)ccc1OCC(=O)OCC(=O)NCC1CCCCC1,-3.1,-14.3,1.0,-2.1,nt,-12.5,nt,nt,
COc1ccc(NC(=O)c2cc3cc(OC)ccc3oc2=O)cc1,3.6,3.2,-2.4,-3.5,nt,-13.0,nt,nt,
Cc1ccc2c(c1)NC(C(C)(C)C)CO2 (stereo not drawn),-9.9,nt,0.5,-1.6,-9.4,-8.9,i,-1.1,

# The list goes on:
SMILES,CSC inhib,Env fusion inh,MT1-MMP act inh,MT1-MMP act inh RFP,eIF4H inh,UUG fidelity,Rce1 inhib,PABP polyA inh,others
COc1ccc(CC(=O)n2[nH]c(=O)c3ccccc3c2=O)cc1OC,-10.6,0.2,6.5,6.2,-4.4,nt,i,-4.2,
O=c1cc(CN2CCOCC2)c2c(ccc3ccccc32)o1,nt,nt,-2.4,3.3,-3.1,nt,i,-2.3,
COc1cccc(CCC(=O)N2CCC(n3nccc3NC(=O)CC(C)C)CC2)c1,8.6,-6.0,-1.6,1.0,-4.5,8.3,i,0.8,
NC(=O)C1(Nc2ccc([N+](=O)[O-])cc2)CCCC1,nt,-1.7,-2.5,2.1,nt,-9.5,nt,nt,
COc1ccccc1CNC(=O)CCCOc1cc(=O)n(C)c2ccccc12,-0.4,?,7.7,6.3,-4.2,12.0,nt,-12.2,
COc1ccc(C(=O)n2cnc3ccccc32)cc1[N+](=O)[O-],-5.7,-19.2,-1.2,-2.3,1.1,1.6,i,1.2,

# 2 records picked at random from the list so far:
SMILES,CSC inhib,Env fusion inh,MT1-MMP act inh,MT1-MMP act inh RFP,eIF4H inh,UUG fidelity,Rce1 inhib,PABP polyA inh,others
COc1ccc(CC(=O)n2[nH]c(=O)c3ccccc3c2=O)cc1OC,-10.6,0.2,6.5,6.2,-4.4,nt,i,-4.2,
COc1ccccc1CNC(=O)CCCOc1cc(=O)n(C)c2ccccc12,-0.4,?,7.7,6.3,-4.2,12.0,nt,-12.2,

# Bioassay records from PubChem.
